UCH37 inh: inhibitors of human deubiquitinating enzyme UCH37. AID 588478. inhibition, % (test concentration not listed). Q9Y5K5. purified proteasome/UCH37, Ub-AMC cleavage fluorescence. 330,000 tested, 0.33% active;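 active = mean of two replicates above 20%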;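 note: 0% = compound-free wells with enzyme and 100% = wells lacking proteasome; stock transfer was 100 nL into about 20 µL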
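Signal – fluorescence, ex 355 nm, em 460 nm · System – Proteasome-bound UCH37 · Input – 0.15 nM proteasome as dispensed · Timing – 30 min preincubation with enzyme, 25 min cleavage at room temperature · Read-out basis – percent inhibition of cleavage signal versus uninhibited and no-proteasome wells · Medium – Tris-HCl pH 7.4 with ATP-MgCl2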
AF4-AF9 inh: blocks AF4 peptide binding to human AF9; AlphaScreen, biotin-AF4 peptide binding to FLAG-AF9; inhibition, % at 10 µM; 350,000 tested, 0.47% active; AID 651704;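 active = every replicate reaching a set inhibition limit, whatever the replicate mean, cut at about 25% in these data; inconclusive = mean inhibition reaches that limit but some replicates miss it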;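 note: 0% = plate neutral control median and 100% = total signal loss; the record names both 10 and 1 µM as test concentration; the first replicate is given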
Target sequence (P42568 whole entry, looked up): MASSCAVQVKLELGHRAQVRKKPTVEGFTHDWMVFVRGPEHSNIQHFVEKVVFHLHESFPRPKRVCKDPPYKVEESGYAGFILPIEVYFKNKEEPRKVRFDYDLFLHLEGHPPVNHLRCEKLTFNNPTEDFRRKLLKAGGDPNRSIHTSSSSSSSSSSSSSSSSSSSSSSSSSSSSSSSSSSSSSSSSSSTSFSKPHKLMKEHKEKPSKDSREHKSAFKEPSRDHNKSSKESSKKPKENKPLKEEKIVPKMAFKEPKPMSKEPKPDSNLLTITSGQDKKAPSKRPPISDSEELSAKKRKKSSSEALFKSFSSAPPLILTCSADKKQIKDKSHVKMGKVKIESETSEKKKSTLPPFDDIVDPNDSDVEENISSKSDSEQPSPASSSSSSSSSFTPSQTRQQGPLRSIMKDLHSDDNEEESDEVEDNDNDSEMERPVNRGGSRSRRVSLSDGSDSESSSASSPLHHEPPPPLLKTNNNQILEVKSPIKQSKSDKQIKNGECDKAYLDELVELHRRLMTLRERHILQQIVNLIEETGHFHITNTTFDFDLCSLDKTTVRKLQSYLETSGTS
FGF22 binding: FGF22 (human) thermal shift binding; Q9HCT0; recombinant FGF22 thermal shift, SYPRO orange fluorescence; percent of sucrose octasulfate shift, DMSO zero; calls only at 9.99 µM; 340,000 tested, 1.5% active; AID 651658;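 active = melting point raised past a set limit in the mean and every replicate; inconclusive = no clear call; three in four hits are not shown here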
Vif TR-FRET: HIV-1 Vif–A3G interaction blockers – biochemical, TR-FRET, GST-Vif 1-94, biotin-A3G peptide, dose response retest, primary screen (AID 1117319); TR-FRET GST-Vif / biotin-A3G peptide binding; higher % means a stronger effect; test concentration not given here; strong numbers were not always called active; one-dose inhibition, %; IC50 in µM for titrated hits; 260,000 tested, 0.57% active;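 active = above the screen mean plus three standard deviations and confirmed in dose response; inconclusive = results disagree or hit not tested in dose response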;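 note: Vif residues 1-94 fused to GST binding biotinylated APOBEC3G peptide 110-148; 0% = full assay without inhibitor and 100% = GST in place of GST-Vif; retest series ran down from 100 µM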
E coli growth: inhibitors of Escherichia coli growth; OD600, 23 h; stronger effect = lower value; OD600 absorbance (test concentration not listed); 330,000 tested, 0.21% active;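 active = OD600 absorbance below the run mean of sample wells minus 3.6 SD, in any replicate, cut at about 0.56 in these data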;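 note: stock transfer was 300 nL into about 60 µL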
RanGTP-Imp inh: inhibitors of RanGTP-importin-beta interaction, primary screen, biochemical, FRET, CFP-Ran, YFP-importin-beta, homogeneous; cell-free CFP-Ran/YFP-importin-beta FRET ratio; 300,000 tested, 1.1% active; inhibition, % (no concentration beside the values);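 active = most replicates above 15%; inconclusive = exactly half above 15%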;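 note: 0% = DMSO wells and 100% = Ran loaded with GDP instead of GTP; wells of about 40 µL received 100 nL stock; the first replicate is given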
HNF4A DNA FP: change in binding of human HNF4 alpha to DNA | P41235 | HNF4a-FITC DNA binding, fluorescence polarization, 1 h | activity change, % at 10 µM | 360,000 tested, 0.3% active | AID 1224865; in the data active = activity change above about 30%, passing the limit was not always enough;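 note: controls were the assay level and a saturating level of protein; the project sought stronger binding though the title names inhibitors; some compounds called inactive have numbers as strong as hits; positive values seem to mean higher polarization but the record does not say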
Target sequence (P41235 whole entry, looked up): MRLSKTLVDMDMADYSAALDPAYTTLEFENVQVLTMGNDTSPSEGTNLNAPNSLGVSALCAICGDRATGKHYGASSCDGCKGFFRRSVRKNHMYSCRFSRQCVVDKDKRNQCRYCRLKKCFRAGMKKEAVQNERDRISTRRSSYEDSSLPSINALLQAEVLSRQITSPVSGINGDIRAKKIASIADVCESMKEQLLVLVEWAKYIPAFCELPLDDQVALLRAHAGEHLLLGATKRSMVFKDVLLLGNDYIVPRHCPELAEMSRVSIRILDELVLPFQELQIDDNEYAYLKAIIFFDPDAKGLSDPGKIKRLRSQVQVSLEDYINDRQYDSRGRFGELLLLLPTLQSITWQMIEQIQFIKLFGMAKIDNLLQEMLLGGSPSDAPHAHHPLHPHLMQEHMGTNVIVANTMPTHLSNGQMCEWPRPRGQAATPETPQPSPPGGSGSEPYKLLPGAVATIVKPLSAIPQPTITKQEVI
Numbers without * were called inactive; i = inactive; u = inconclusive; x = no result given. These rows are one share of the data; the hit share may differ from the screen's.

SMILES	UCH37 inh	AF4-AF9 inh	FGF22 binding	Vif TR-FRET	E coli growth	RanGTP-Imp inh	HNF4A DNA FP
Cc1cc(C)c(S(=O)(=O)N2CCN(c3ccc([N+](=O)[O-])c(NCC4CCCO4)c3)CC2)c(C)c1 (stereo unspecified)	11	x	x	28%	0.74	-5.4	-4.2
CCCCN1CCCCC1(C)C(=O)NCc1cccc(OC)c1 (stereo unspecified)	x	0.2	i	x	x	x	1.1
O=C(O)CCc1nc2cc(C(F)(F)F)ccc2n(Cc2ccccc2)c1=O	-2.5	-0.8	i	x	0.66	1.0	-0.6
CCN(CC)C(=O)CN1C(=O)COCC1=O	3.1	-0.3	i	8%	0.66	0.3	-2.6
O=C(Cn1cnc([N+](=O)[O-])c1)c1ccc(Cl)cc1	-3.4	1.2	i	x	0.69	-0.6	-2.3
CCC(=O)NC(=S)Nc1ccc(NC(=O)c2ccc(OC)cc2)cc1	2.7	-2.9	i	22%	0.76	0.8	4.1
CNc1[nH]c(=O)[nH]c(=O)c1N=Nc1cc(Cl)ccc1Cl	11	-2.3	i	x	0.67	-1.1	-0.9
CC(C)n1c(=S)[nH]c2ccccc21	3.3	x	x	2%	0.72	-0.9	-3.2
CC(C)NC(=O)COc1ccc(OCc2ccccc2)cc1	4.8	-0.4	i	3%	0.7	-0.7	0.8
CCOC(=O)c1cc(-c2ccccc2)n(CCC(=O)O)c1C	0.7	-1.7	i	-1%	0.68	-1.3	-0.2
CCOc1ccc(-c2cnc(SCC(N)=O)nc2N)cc1	-0.1	x	x	u	0.7	-2.1	-1.4
O=S(=O)(c1ccc(NC2CCCCC2)cc1)N1CCOCC1	0.8	x	x	u	0.7	-0.3	-0.7
Cc1nnc(NC(=O)CSc2ccc(-c3ccc(Cl)cc3)nn2)s1	2.5	1.3	i	-59%	0.72	0.2	1.9
CC(C)(C)C(=O)N1CCC(O)(CS(=O)(=O)Cc2ccccc2)CC1	1.5	-6.1	i	8%	0.7	0.4	4.6
Cc1ccc(SCC(=O)OCC(=O)N(C)C2CCS(=O)(=O)C2)cc1C (stereo unspecified)	1.2	-1.9	i	-8%	0.69	x	-0.6
Cc1ccc(C(=O)N2CCN(c3cc4c(cc3[N+](=O)[O-])n(C)c(=O)n4C)CC2)cc1	4.1	-26	i	-1%	0.7	-0.2	-1.2
CCCCNC(=O)N1CCN(C(c2ccccc2)c2ccccc2)CC1	0.9	x	x	x	0.69	2.5	-1.5
Cc1ccc(CNC2CCCCC2)s1	1.6	6.9	i	x	0.64	1.7	-6.1
CCN(CC(=O)NC(C)C)C(=O)c1ccc(S(=O)(=O)N(C)c2ccccc2OC)cc1	0.0	x	x	-2%	0.74	0.2	-0.8
COc1ccc(Cl)cc1NC(=O)c1ccccc1C	-2.5	x	x	26%	0.67	-1.9	-0.9
COCCCNC(=O)CCCCCNS(=O)(=O)c1ccc(Br)cc1	4.3	-1.1	i	-3%	0.7	-3.4	1.9
O=C(COC(=O)/C=C/c1ccc(Br)o1)Nc1ccccc1F	3.0	x	x	29%	0.7	-5.6	x
COc1c(O)cccc1[C@@H](O)C1CCN(CCc2ccc(F)cc2)CC1	1.2	-1.6	i	x	x	-47	2.7
N#CC1(NC(=O)COC(=O)/C=C/c2ccc3ccccc3n2)CCCCC1	5.0	-10	i	-4%	0.76	-5.9	7.5
O=C1C=C(c2ccc(Cl)cc2)C(=O)N1Nc1ccccc1	5.1	x	x	1%	0.61	-0.2	0.3
O=C(O)CSc1nnc(Cc2cccc3ccccc23)n1-c1cc(C(F)(F)F)cc(C(F)(F)F)c1	6.5	-0.1	i	4%	0.66	3.5	0.2
O=C1C=C(NC2CC2)C2(CCCCC2)O1	4.8	x	x	-2%	0.7	6.8	-10.0
Cc1ccc(-n2c3c(cc(C(=O)NCc4ccco4)c2=O)C(=O)CCC3)cc1	2.2	1.8	i	-3%	0.67	-1.8	0.8
C=CCN(CC=C)C(=O)C1CCC(C(=O)N(CC=C)CC=C)CC1 (stereo unspecified)	0.3	x	x	4%	0.71	1.1	-0.1
COc1ccc(OC)c(CNC(=O)CCn2c(=O)c3cccn3c3ccc(F)cc32)c1	3.6	-1.3	i	x	0.67	u	6.5
Cc1[nH]c2ccccc2c1C(=O)C(=O)NCCc1c[nH]c2ccccc12	2.8	7.4	i	-2%	0.67	-5.6	-2.1
CCOC(=O)c1c(NC(=O)c2ccc(C)cc2)sc2c1CC(C)(C)NC2(C)C	-86	x	x	-3%	0.69	3.8	x
COc1ccc(C(=O)COC(=O)c2cccc(-n3cnnn3)c2)c(OC)c1	5.2	-2.7	i	4%	0.68	1.9	1.8
O=C(CCC(=O)OCC(F)(F)C(F)F)NCc1ccccc1	0.4	x	x	1%	0.69	-0.6	-1.4
O=C(CSc1nnnn1-c1ccc(O)cc1)N1N=C(c2ccc3ccccc3c2)CC1c1ccccc1 (stereo unspecified)	-15	x	x	x	0.71	-2.6	x
CCOC(=O)C1=C(C)NC(=S)NC1c1ccc(-c2ccc(Cl)cc2)o1 (stereo unspecified)	0.1	-1.9	i	32%	0.7	3.6	4.5
O=Cc1cn(CC(=O)Nc2ccc3c(c2)OCO3)c2ccccc12	1.2	-1.5	i	4%	0.65	4.1	-1.4
O=c1c2ccccc2c(-c2ccccc2)nn1-c1ccccn1	4.0	-2.6	i	0%	0.7	0.8	-0.3
O=C(CCn1cnnn1)Nc1cccc(F)c1	1.1	-1.1	i	3%	0.7	0.1	-2.1
Cc1ccc(OCCNS(=O)(=O)c2ccc(N3CCCC3=O)cc2)cc1C	-0.2	-18	i	-3%	0.64	-3.5	-1.5
CC(=O)c1cccc(NC(=O)c2cc(-c3cccs3)on2)c1	3.7	u	i	x	0.71	3.7	-3.5
O=C(N/C(=C/C=C/c1ccccc1)C(=O)N1CCCCC1)c1ccc([N+](=O)[O-])cc1	3.2	16	i	15%	0.66	2.1	0.8
CC(=O)c1c(C)[nH]c(C(=O)OCC(=O)Nc2ccc(C)cc2[N+](=O)[O-])c1C	-2.0	x	x	6%	0.65	1.2	-1.1
O=C(CSc1nnc(C2CCCCC2)o1)Nc1ccccc1Cl	2.4	-3.1	i	x	0.7	-0.2	3.0
CCCNCc1cc(OC)c(OCC(=O)Nc2ccccc2)cc1Br	3.0	1.4	i	17%	0.64	5.9	3.5
CCN(CC)c1ccc(S(=O)(=O)N2CCOCC2)cc1NC(=O)CSC(=S)N1CCCC1	3.4	0.9	i	x	0.71	0.5	2.1
O=C(Nc1ccccc1N1CCOCC1)c1ccc(Cl)nc1	3.1	-0.7	i	-11%	0.72	8.8	-2.5
Cc1cc(C)c(C(=O)NC2CC(C)(C)Cc3c2cnn3-c2ccccc2)o1 (stereo unspecified)	-0.4	3.1	i	2%	0.69	-3.2	-4.3
Cc1cc([N+](=O)[O-])ccc1NCc1ccccc1[N+](=O)[O-]	4.3	2.1	x	3%	0.7	2.2	1.7
O=C(NCC(c1cccs1)N1CCOCC1)c1ccc(Br)o1 (stereo unspecified)	3.7	x	x	23%	0.78	-2.1	-1.3
COc1ccc(OCC(O)CNCCNc2nccc(C(F)(F)F)n2)cc1 (stereo unspecified)	2.5	0.0	i	u	0.71	5.1	4.2
Cc1cnc(C(=O)OCc2nc3ccccc3o2)cn1	-0.2	-0.6	i	x	0.65	x	-1.8
O=c1[nH]nnc2c1ncn2C1OC(CO)C(O)C1O (stereo unspecified)	x	-1.0	i	x	x	x	5.8
CC1(C)C2CCC13CS(=O)(=O)NC3C2 (stereo unspecified)	0.4	x	x	29%	0.77	x	-2.1
COc1ccc(-c2cc3ncnc(Cl)c3s2)cc1	x	-1.9	i	x	x	8.4	5.7
CCc1ccccc1NC(=O)C1(S(=O)(=O)c2ccc(C)cc2)CC1	0.2	-2.0	i	x	0.71	1.2	-1.0
COc1ccc(C(=O)OCC(=O)N2CCc3ccccc32)cc1S(=O)(=O)N1CCOCC1	-0.2	3.1	i	-1%	0.71	x	9.8
CS(=O)(=O)N(CC(=O)N1CCCC1)C1CCCCC1	x	-12	i	0%	x	x	-3.1
CC(C)Oc1ccc(C(=O)NCC(=O)Nc2ccc3c(c2)CCC3)cc1	1.9	-1.9	i	-1%	0.72	x	-0.7
O=C(Nc1ncccc1O)c1c(O)c2ccccc2[nH]c1=O	9.1	6.3	i	7%	0.62	1.4	-2.8

Molecules shown so far containing a COOH group (3):
SMILES	UCH37 inh	AF4-AF9 inh	FGF22 binding	Vif TR-FRET	E coli growth	RanGTP-Imp inh	HNF4A DNA FP
O=C(O)CCc1nc2cc(C(F)(F)F)ccc2n(Cc2ccccc2)c1=O	-2.5	-0.8	i	x	0.66	1.0	-0.6
CCOC(=O)c1cc(-c2ccccc2)n(CCC(=O)O)c1C	0.7	-1.7	i	-1%	0.68	-1.3	-0.2
O=C(O)CSc1nnc(Cc2cccc3ccccc23)n1-c1cc(C(F)(F)F)cc(C(F)(F)F)c1	6.5	-0.1	i	4%	0.66	3.5	0.2

Next section:
SMILES	UCH37 inh	AF4-AF9 inh	FGF22 binding	Vif TR-FRET	E coli growth	RanGTP-Imp inh	HNF4A DNA FP
CCCC(=O)C1=C(O)C(C(=O)OC)C(C)(C)CC1=Nc1ccc(N)cc1 (stereo unspecified)	9.1	x	x	1%	0.71	0.4	-1.4
N#Cc1ccc(-c2ccc(OCC(=O)NCC(=O)Nc3ccc(F)c(F)c3F)cc2)cc1	-15	-1.5	i	-2%	0.69	-1.1	-1.0
CCOC(=O)c1ccc(Nc2nc(=O)c3cccnc3s2)cc1	6.3	x	x	3%	0.67	1.2	-1.1
CCOCCCNC(=O)C(c1ccccc1)N(Cc1cccs1)C(=O)CNC(=O)c1ccccc1 (stereo unspecified)	0.9	3.5	i	-1%	0.66	-3.6	0.0
Cc1cc(C)c(S(=O)(=O)C(C)C)c(=O)[nH]1	1.5	0.5	i	x	0.68	2.8	-1.8
Cc1ccc(N=N/C(=C\O)C(=O)c2ccc(Cl)cc2)cc1	1.5	3.5	x	-3%	0.68	-2.1	10
O=C(COC(=O)C1CCC(=O)N1)Nc1ccc(Cl)cc1Cl (stereo unspecified)	1.4	x	x	21%	0.66	2.9	0.3
O=C([O-])c1cc(-c2ccccc2)cc(-c2ccccc2)[n+]1CCc1ccc(Cl)cc1	-1.4	5.5	i	x	0.66	x	-2.1
CSc1ccc(-c2c(C#N)c(N)nc3c2c(C)nn3-c2ccccc2)cc1	-159	x	x	-52%	0.72	0.8	-0.6
COc1cc(OC)c(CN2CCc3c([nH]c4ccccc34)C2)cc1Br	5.2	6.8	i	3%	0.66	0.0	52*
CC(C)Cc1ccc(CN2CCCC(NC(=O)CCN3CCCCC3=O)C2)cc1 (stereo unspecified)	-2.7	-2.1	i	x	0.72	-2.6	0.1
COc1ccc(/C=N/NC(=O)CNC(=O)c2ccncc2)cc1OC	x	-1.0	i	5%	x	2.5	-0.1
COc1ccccc1CN1CN(S(=O)(=O)c2ccccc2)c2nc3ccccc3nc21	2.4	8.3	i	1%	0.7	-1.7	0.9
COC(=O)c1ccc(C(=O)OC)c(NC(=O)CN2CCN(c3ccccc3OC)CC2)c1	1.9	x	x	0%	0.71	8.3	-0.9
CCOc1ccccc1NC(=O)c1cc(=O)c2ccccc2o1	-20	-0.1	i	x	0.7	10	-0.9
Cc1nn(-c2cccc(Cl)c2)c2nc(-c3ccco3)cc(C(=O)O)c12	x	x	x	u	x	1.5	-29
Cc1ccc(-n2nnc3c(SCC(=O)NCC4CCCO4)ncnc32)cc1 (stereo unspecified)	2.5	x	x	7%	0.72	1.1	-3.1
